# FGF22 binding: binders of recombinant human FGF22 by thermal shift; Q9HCT0; SYPRO orange fluorescence; percent of sucrose octasulfate shift, DMSO zero; calls only at 9.99 µM; 340,000 tested, 1.5% active; AID 651658;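 active = melting point raised past a set limit in the mean and every replicate; three in four hits are not shown here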
# Target sequence (Q9HCT0 whole entry, looked up): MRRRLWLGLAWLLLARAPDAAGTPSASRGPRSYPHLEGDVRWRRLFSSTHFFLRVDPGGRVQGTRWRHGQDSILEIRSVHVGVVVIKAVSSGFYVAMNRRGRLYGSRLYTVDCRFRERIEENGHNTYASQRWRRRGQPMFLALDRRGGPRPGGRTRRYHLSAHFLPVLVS
# AF4-AF9 inh: blocks AF4 peptide binding to human AF9 | inhibition, % at 10 µM | P42568 | AlphaScreen, biotin-AF4 peptide binding to FLAG-AF9 | 350,000 tested, 0.47% active;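 active = every replicate reaching a set inhibition limit, whatever the replicate mean, cut at about 25% in these data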;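 note: 0% = plate neutral control median and 100% = total signal loss; the record names both 10 and 1 µM as test concentration; the first replicate is given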
# Target sequence (P42568 whole entry, looked up): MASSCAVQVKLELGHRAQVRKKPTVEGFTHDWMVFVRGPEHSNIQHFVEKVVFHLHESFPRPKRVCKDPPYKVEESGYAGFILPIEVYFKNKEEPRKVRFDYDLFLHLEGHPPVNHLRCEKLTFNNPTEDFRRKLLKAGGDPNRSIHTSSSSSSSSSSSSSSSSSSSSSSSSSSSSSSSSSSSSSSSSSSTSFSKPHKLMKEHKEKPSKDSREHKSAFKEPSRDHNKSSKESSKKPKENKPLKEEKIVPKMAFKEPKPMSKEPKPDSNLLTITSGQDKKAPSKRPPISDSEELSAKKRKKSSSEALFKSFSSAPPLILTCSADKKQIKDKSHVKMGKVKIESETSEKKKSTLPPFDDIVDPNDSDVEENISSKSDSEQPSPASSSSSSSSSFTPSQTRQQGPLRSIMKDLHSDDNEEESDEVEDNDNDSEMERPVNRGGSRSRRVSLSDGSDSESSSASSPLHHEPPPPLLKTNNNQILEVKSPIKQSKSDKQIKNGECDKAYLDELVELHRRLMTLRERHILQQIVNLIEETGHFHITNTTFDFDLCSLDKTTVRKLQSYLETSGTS
# * = called active by the depositor; i = inactive; + = active, no number. Some of the compounds tested; rates above refer to the full screens.
nr	structure	FGF22 binding	AF4-AF9 inh
1	O=S(=O)(N[C@@H]1CC[C@H](CCn2cc(C3CC3)nn2)O[C@@H]1CO)c1ccc(Cl)cc1	i	1.6
2	C/C=C/c1cnc2c(c1)C(=O)N([C@@H](C)CO)C[C@H](C)[C@@H](CN(C)C(=O)Nc1ccc(C(F)(F)F)cc1)O2	i	1.6
3	Cc1noc(C)c1S(=O)(=O)N(C)C[C@@H]1Oc2c(NS(=O)(=O)c3ccccc3)cccc2C(=O)N([C@H](C)CO)C[C@@H]1C	i	-0.6
4	COc1ccc2c3c(n(C)c2c1)[C@@H](CO)N(C(=O)CN(C)C)CC31CCN(C(=O)CN(C)C)CC1	i	4.4
5	C[C@@H]1CCCCO[C@@H](CN(C)Cc2ccc(C(=O)O)cc2)[C@H](C)CN([C@H](C)CO)C(=O)c2cc(NS(=O)(=O)c3ccc(F)cc3)ccc2O1	i	-3.2
6	CCNC(=O)C[C@H]1CC[C@@H]2[C@H](COC[C@@H](O)CN2C(=O)Nc2c(C)noc2C)O1	i	0.6
7	CCC(=O)N1C[C@@H](C)[C@@H](OC)CN(C)C(=O)c2ccc(NC(=O)COC)cc2OC[C@@H]1C	i	-2.3
8	COc1ccc(S(=O)(=O)N(C)C[C@H]2Oc3ccc(NC(=O)CCC(F)(F)F)cc3CC(=O)N([C@@H](C)CO)C[C@@H]2C)cc1	i	-3.1
9	CCCNC(=O)[C@@H]1[C@@H](CO)[C@@H]2Cn3c(cccc3=O)[C@@H]2N1Cc1ccccc1Cl	i	0.6
10	COc1ccc(S(=O)(=O)Nc2ccc3c(c2)C(=O)N([C@H](C)CO)C[C@@H](C)[C@@H](CN(C)Cc2ccncc2)O3)cc1	i	-0.9
11	CN(C)Cc1c(C(C)(C)O)[nH]c2cc(C(F)(F)F)ccc12	i	0.0
12	O=C(CC(F)(F)F)N1C[C@H]2[C@@H](c3ccccc31)[C@H](CO)N2CC1CCOCC1	i	-23
13	CN(C)C(=O)c1cccc(-c2ccccc2[C@@H]2[C@@H](CO)N(C(=O)C3CC3)[C@H]2C#N)c1	i	-1.4
14	CCCN1C[C@@H](C)[C@@H](OC)CN(C)C(=O)c2ccc(NC(=O)c3cnccn3)cc2OC[C@H]1C	i	-5.0
15	C[C@H]1CN([C@@H](C)CO)C(=O)c2cccc(NC(=O)C3CCOCC3)c2O[C@@H]1CN(C)Cc1ccncc1	i	-6.3
16	C[C@H]1CN([C@@H](C)CO)C(=O)c2cc(NC(=O)Nc3ccc(F)cc3)ccc2O[C@@H]1CN(C)S(=O)(=O)c1cn(C)cn1	i	-2.8
17	COc1ccc2c3c(n(C)c2c1)[C@@H](CO)N(CC1CCCCC1)CC31CCN(C(C)=O)CC1	i	-5.7
18	C[C@@H]1CN([C@@H](C)CO)S(=O)(=O)c2ccc(/C=C/c3ccccc3)cc2O[C@@H]1CN(C)C(=O)C1CC1	i	5.1
19	C[C@@H]1CN([C@@H](C)CO)S(=O)(=O)c2ccc(C3=CCCCC3)cc2O[C@@H]1CN(C)Cc1ccccc1F	i	9.7
20	COCC#Cc1cnc2c(c1)C(=O)N([C@H](C)CO)C[C@H](C)[C@@H](CN(C)C(=O)Cc1ccncc1)O2	i	-2.9
21	Cc1noc(C)c1NC(=O)Nc1cccc2c1O[C@H](CN(C)C(=O)NC(C)C)[C@H](C)CN([C@@H](C)CO)C2=O	i	-1.6
22	O=C(C[C@@H]1CC[C@H]2[C@@H](COC[C@H](O)CN2S(=O)(=O)c2cccc(Cl)c2)O1)Nc1ccc(-c2ccccc2)cc1	+	-0.5
23	CO[C@@H]1CN(C)C(=O)c2ccc(NC(=O)NC(C)C)cc2OC[C@H](C)N(Cc2ccccn2)C[C@@H]1C	i	-1.4
24	C[C@@H]1CN([C@H](C)CO)C(=O)c2cc(NC(=O)C3CCCCC3)ccc2O[C@@H](C)CCCCO[C@@H]1CN(C)S(=O)(=O)c1cccs1	i	-0.9
25	Cc1noc(C)c1NC(=O)N(C)C[C@H]1Oc2ccc(NS(=O)(=O)c3ccc(F)cc3)cc2CC(=O)N([C@@H](C)CO)C[C@@H]1C	i	0.2
26	C[C@H](CO)N1C[C@H](C)[C@H](CN(C)Cc2ccccc2)Oc2c(NC(=O)NC3CCCCC3)cccc2C1=O	i	-5.0
27	C[C@H]1CN([C@@H](C)CO)C(=O)c2cc(/C=C/c3ccccc3)cnc2O[C@H]1CN(C)C(=O)c1cnccn1	i	-0.6
28	N#C[C@@H]1[C@H](c2ccccc2)[C@@H](CO)N1C(=O)C1CCCC1	i	-2.0
29	C[C@H]1CN([C@@H](C)CO)C(=O)c2cc(-c3cccnc3)cnc2O[C@@H]1CN(C)C(=O)Nc1ccc(C(F)(F)F)cc1	i	1.0
30	COc1cccc(S(=O)(=O)N(C)C[C@H]2Oc3ncc(-c4cccc(C(=O)N(C)C)c4)cc3C(=O)N([C@@H](C)CO)C[C@@H]2C)c1	i	0.6
31	C[C@H](CO)N1C[C@H](C)[C@H](CN(C)C(=O)Nc2ccc3c(c2)OCO3)Oc2ccc(NC(=O)CCC(F)(F)F)cc2C1=O	i	1.3
32	Cc1noc(C)c1S(=O)(=O)N(C)C[C@H]1OCCCC[C@H](C)Oc2ccc(NC(=O)NC3CCCCC3)cc2C(=O)N([C@@H](C)CO)C[C@@H]1C	i	3.3
33	CC(C)C[C@H]1COCc2cn(nn2)CC[C@H](C)C(=O)N1	i	-3.5
34	C[C@@H]1CN([C@H](C)CO)S(=O)(=O)c2ccc(-c3cncnc3)cc2O[C@H]1CN(C)C(=O)CC1CC1	i	-0.8
35	O=C(C[C@@H]1C[C@@H]2c3cc(NC(=O)NC4CCCC4)ccc3O[C@@H]2[C@H](CO)O1)NCc1ccncc1	i	-4.5
36	O=C(C[C@@H]1CC[C@@H](NC(=O)C2CCC2)[C@@H](CO)O1)NC1CCC1	i	-2.2
37	C[C@@H]1CN([C@@H](C)CO)C(=O)c2cccc(NC(=O)Nc3ccccc3)c2O[C@@H]1CN(C)Cc1ccc(C(=O)O)cc1	i	-0.8
38	COC(=O)C[C@H]1C=C[C@@H](NC(=O)c2ccccc2)[C@H](CO)O1	i	-0.7
39	COc1ccc(CNC(=O)C[C@H]2CC[C@H](NS(=O)(=O)c3cccc(OC)c3)[C@H](CO)O2)cc1	i	-1.1
40	COCC#Cc1cnc2c(c1)C(=O)N([C@@H](C)CO)C[C@H](C)[C@H](CN(C)Cc1ccc3c(c1)OCO3)O2	i	-2.0

# In a second layout: results already given
# The line under a structure holds: FGF22 binding, AF4-AF9 inh
37	C[C@@H]1CN([C@@H](C)CO)C(=O)c2cccc(NC(=O)Nc3ccccc3)c2O[C@@H]1CN(C)Cc1ccc(C(=O)O)cc1
 : i, -0.8
27	C[C@H]1CN([C@@H](C)CO)C(=O)c2cc(/C=C/c3ccccc3)cnc2O[C@H]1CN(C)C(=O)c1cnccn1
 : i, -0.6

# By substructure: the entries above containing a CF3 group.
nr	structure	FGF22 binding	AF4-AF9 inh
2	C/C=C/c1cnc2c(c1)C(=O)N([C@@H](C)CO)C[C@H](C)[C@@H](CN(C)C(=O)Nc1ccc(C(F)(F)F)cc1)O2	i	1.6
8	COc1ccc(S(=O)(=O)N(C)C[C@H]2Oc3ccc(NC(=O)CCC(F)(F)F)cc3CC(=O)N([C@@H](C)CO)C[C@@H]2C)cc1	i	-3.1
11	CN(C)Cc1c(C(C)(C)O)[nH]c2cc(C(F)(F)F)ccc12	i	0.0
12	O=C(CC(F)(F)F)N1C[C@H]2[C@@H](c3ccccc31)[C@H](CO)N2CC1CCOCC1	i	-23
29	C[C@H]1CN([C@@H](C)CO)C(=O)c2cc(-c3cccnc3)cnc2O[C@@H]1CN(C)C(=O)Nc1ccc(C(F)(F)F)cc1	i	1.0
31	C[C@H](CO)N1C[C@H](C)[C@H](CN(C)C(=O)Nc2ccc3c(c2)OCO3)Oc2ccc(NC(=O)CCC(F)(F)F)cc2C1=O	i	1.3

# New compounds follow
nr	structure	FGF22 binding	AF4-AF9 inh
41	COc1ccc(NC(=O)N(C)C[C@H]2OCCCC[C@H](C)Oc3ccc(NC(=O)CCC(F)(F)F)cc3C(=O)N([C@H](C)CO)C[C@@H]2C)cc1	i	0.9
42	O=C(C[C@@H]1C[C@H]2c3cc(NC(=O)CC4CC4)ccc3O[C@H]2[C@H](CO)O1)NCc1cccc(F)c1	i	-0.8
43	C[C@H]1CN([C@@H](C)CO)C(=O)Cc2cc(NS(C)(=O)=O)ccc2O[C@@H]1CN(C)C(=O)Nc1cccc2ccccc12	i	0.6
44	COc1ccc(S(=O)(=O)N(C)C[C@H]2Oc3ccc(NC(=O)Nc4c(C)noc4C)cc3C(=O)N([C@@H](C)CO)C[C@@H]2C)cc1	i	-0.9
45	C[C@@H]1CN([C@H](C)CO)C(=O)c2cc(NC(=O)CCCN(C)C)ccc2O[C@@H]1CN(C)S(=O)(=O)c1ccccc1	i	-1.2
46	COCC#Cc1ccc2c(c1)O[C@H](CN(C)C)[C@H](C)CN([C@@H](C)CO)S2(=O)=O	i	-2.6
47	C[C@H]1CN([C@@H](C)CO)C(=O)c2cc(-c3ccncc3)cnc2O[C@@H]1CN(C)S(=O)(=O)c1ccccc1	i	-4.8
48	O=C(C(=O)N1CCN(S(=O)(=O)c2cccc3ccccc23)CC1)c1cccc(C(F)(F)F)c1	i	0.8
49	CC=Cc1ccc2n(c1=O)C[C@@H]1[C@@H](CO)[C@H](C(=O)NC3CCCCC3)N(C(=O)C3CC3)[C@H]21 (mixture of isomers)	i	-0.4
50	CCCC(=O)Nc1ccc2c(c1)C(=O)N(C)C[C@@H](OC)[C@H](C)CN(C(=O)c1ccccc1F)[C@@H](C)CO2	i	-0.2
51	Cc1ccc(S(=O)(=O)Nc2ccc3c(c2)CC(=O)N([C@@H](C)CO)C[C@@H](C)[C@H](CN(C)Cc2ccc(-c4ccccc4)cc2)O3)cc1	i	2.7
52	O=C(c1cccc(F)c1)N1C[C@H]2[C@@H](c3ccccc31)[C@@H](CO)N2C(=O)C1CCOCC1	i	0.5
53	CN1CCN(C(=O)C[C@@H]2CC[C@H]3[C@@H](COC[C@@H](O)CN3CC3CC3)O2)CC1	i	-2.9
54	CO[C@@H]1CC[C@H]2CCOc3c(C#N)cccc3C(=O)N(C)CC3(CCCCC3)CC(=O)N(C)C[C@H]1O2	i	-1.3
55	COc1ccc2c3c([nH]c2c1)[C@@H](CO)N(C(=O)c1cccc(F)c1)CC31CN(C(=O)c2cccc(F)c2)C1	i	3.5
56	C[C@H](NC(=O)C[C@@H]1CC[C@H]2[C@@H](COC[C@@H](O)CN2C)O1)c1ccccc1	i	-1.3
57	C[C@H](CO)N1C[C@H](C)[C@@H](CN(C)Cc2ccc(Cl)c(Cl)c2)OCCCC[C@H](C)Oc2ccc(NC(=O)c3ccncc3)cc2C1=O	i	2.5
58	N#Cc1ccc(-c2ccc([C@H]3[C@@H](CO)N4C(=O)CNC[C@H]34)cc2)cc1	i	-1.8
59	O=C(Nc1cccc(Cl)c1)N1C[C@H]2[C@@H](c3ccccc31)[C@H](CO)N2Cc1ccncc1	i	1.5
60	O=C(C[C@H]1CC[C@H]2[C@@H](COC[C@H](O)CN2CCC(F)(F)F)O1)NCC1CC1	i	-2.5
61	C[C@@H]1CN([C@@H](C)CO)C(=O)c2cc(NC(=O)Nc3ccccc3)ccc2O[C@@H]1CN(C)S(=O)(=O)c1ccccc1	i	1.0
62	CN1C(=O)c2cc(NC(=O)c3cccs3)ccc2OC[C@@H]2O[C@@H](CC(=O)NCC(F)(F)F)CC[C@@H]21	i	-2.9
63	Cc1noc(C)c1S(=O)(=O)Nc1ccc2c(c1)C(=O)N([C@@H](C)CO)C[C@@H](C)[C@H](CN(C)C(=O)NC1CCCCC1)OCCCC[C@@H](C)O2	i	-0.1
64	CC(C)NC(=O)Nc1ccc2c(c1)C(=O)N([C@@H](C)CO)C[C@@H](C)[C@@H](CN(C)S(=O)(=O)c1ccccc1)OCCCC[C@@H](C)O2	i	0.5
65	CO[C@H]1CN(C)C(=O)c2ccc(NS(=O)(=O)c3ccccc3F)cc2OC[C@H](C)NC[C@H]1C	i	-1.0
66	O=C([C@H]1[C@H](CO)[C@H]2Cn3c(ccc(-c4ccccc4)c3=O)[C@H]2N1CCC(F)(F)F)N1CCOCC1	i	-0.4
67	CCCNC(=O)C[C@@H]1CC[C@H]2[C@@H](COC[C@@H](O)CN2C(=O)Nc2ccc(Cl)c(Cl)c2)O1	i	-2.8
68	COc1ccc(CN(C)C[C@@H]2Oc3ccc(NC(=O)NC4CCCCC4)cc3C(=O)N([C@@H](C)CO)C[C@H]2C)cc1	i	-0.4
69	CCC(=O)Nc1ccc2c(c1)C(=O)N(C)C[C@@H](OC)[C@H](C)CN(Cc1cccc(F)c1)[C@H](C)CO2	i	4.1
70	C[C@@H]1CCCCO[C@H](CN(C)C(=O)NC2CCCCC2)[C@H](C)CN([C@@H](C)CO)C(=O)c2cc(NS(=O)(=O)c3cn(C)cn3)ccc2O1	i	0.4
71	O=C(c1ccccc1)N1CC2(C1)[C@H](c1ccccc1)[C@@H](CO)N2Cc1ccccn1	i	-3.7
72	CCNC(=O)C[C@H]1CC[C@@H](NS(=O)(=O)c2ccc(F)cc2)[C@H](CO)O1	i	-1.3
73	CCS(=O)(=O)N1CCCCN2[C@H](CO)[C@H](c3ccc(-c4cccc(C#N)c4)cc3)[C@@H]2C1	i	-15
74	C[C@H]1CN([C@@H](C)CO)C(=O)Cc2cc(NC(=O)CCCCCC(=O)Nc3ccccc3N)ccc2O[C@H]1CN(C)Cc1ccc(C(F)(F)F)cc1	i	-0.8
75	Cc1ccc(S(=O)(=O)Nc2ccc3c(c2)C(=O)N([C@H](C)CO)C[C@H](C)[C@@H](CN(C)C(=O)Nc2ccc(F)cc2)O3)cc1	i	-0.7
76	C/C=C/c1ccc([C@@H]2[C@@H](CO)N(C(C)=O)[C@@H]2CN(C)C(=O)c2ccccn2)cc1	i	-2.2
77	O=C(N[C@@H]1CC[C@H](CC(=O)N2CCOCC2)O[C@@H]1CO)c1ccc2c(c1)OCO2	i	-2.3

# Screens as filed in PubChem.
